TRPML1 ag = qHTS for Agonists of the Human Mucolipin Transient Receptor Potential 1 (TRPML1). Mucolipin-1 (Homo sapiens), Q9GZU1. TRPML1-expressing cells, Ca2+ dye fluorescence, FDSS; host cell line not named in the record; reference of the full effect not given here. activation, % (test concentration not listed). 410,000 compounds, 0.12% hits; in the data active = activation above about 50%; inconclusive = about 30% to 50%; inactive = below about 30%; also: 0% is about no effect; the text of the record puts the active cut at 80%
Target sequence (Q9GZU1 whole entry, looked up): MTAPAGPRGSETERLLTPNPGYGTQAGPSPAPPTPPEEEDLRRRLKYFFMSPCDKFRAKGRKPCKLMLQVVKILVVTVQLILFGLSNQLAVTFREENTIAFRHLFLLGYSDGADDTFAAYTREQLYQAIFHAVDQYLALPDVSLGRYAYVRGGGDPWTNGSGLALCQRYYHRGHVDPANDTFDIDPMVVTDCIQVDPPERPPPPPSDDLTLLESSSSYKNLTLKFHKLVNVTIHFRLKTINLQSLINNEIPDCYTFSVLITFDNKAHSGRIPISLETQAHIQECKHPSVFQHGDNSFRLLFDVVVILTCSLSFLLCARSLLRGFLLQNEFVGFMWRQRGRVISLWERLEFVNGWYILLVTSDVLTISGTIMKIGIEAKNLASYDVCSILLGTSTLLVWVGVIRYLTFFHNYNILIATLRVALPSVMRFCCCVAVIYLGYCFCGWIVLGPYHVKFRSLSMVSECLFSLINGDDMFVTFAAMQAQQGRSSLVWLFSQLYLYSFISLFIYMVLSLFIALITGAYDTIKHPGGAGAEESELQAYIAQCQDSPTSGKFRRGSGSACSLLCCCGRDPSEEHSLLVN
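Cells: TRPML1-DL, 1X Tet inducer, ~16 h at 37 degrees C/5% CO2. Dye: ABD Ca8 no-wash + quencher, 45-90 min RT. Read: 10 s baseline, compound add, 110 s agonist phase; 54-4 EC80 (4uM final), 110 s antagonist phase.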
PINK1 expr mod = A Quantitative High throughput Screen to Identify Chemical Modulators of PINK1 Expression; Potency, µM (highest dose often 76.6 µM), without a hit: top-dose activation (PINK1 increase), actives largely listed as activators; AID 624263, 2012; PINK1 immunofluorescence, high-content cytometry, 24 h; 410,000 compounds, 0.2% hits; active = well fitted activation curve with a large enough effect; inconclusive = small, poorly fitted or top-dose-only effect; inactive = flat fitted curve, though single readings scatter; cell line not stated here;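 also: potency is read from the fitted curve at half-maximal effect; % of control where 0% means no effect; nearly all actives have a fitted effect of over 65% in size; a mitochondrial uncoupler was the plate control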
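Decision-based qHTS: stable cells, 24 h exposure to five compound concentrations, CCCP as control. Fixed cells stained for PINK1 plus nuclear, mitochondrial and cell markers, cytometer read.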
Starred values were filed as active, the others as inactive; u = inconclusive. Only part of the results is shown; the hit share may differ from the screen's.

Values run as follows: TRPML1 ag, PINK1 expr mod
- CCCCC(=O)Nc1nnc(S(=O)(=O)N(C)Cc2ccccc2)s1
 : -0.9, 1.8%
- CC(C)Oc1ccc(CNC(=O)c2cc3ccccn3n2)cc1
 : 0.1, 4.1%
- COc1cccc(CNC(=O)c2ccc(-c3nc(CS(=O)c4ccccc4)c(C)o3)cc2)c1 (stereo not drawn)
 : 2.9, 1.6%
- Cc1ccccc1OCC(=O)Nc1ccccc1OCc1cc(=O)n2ccccc2n1
 : 0.7, 20%
- COc1ccc(C(CC(=O)Nc2ccc(OC)c(OC)c2)N2Cc3ccccc3C2=O)cc1 (stereo not drawn)
 : -0.6, 0.0%
- CCCNC(=O)CCCN1C(=O)CCn2nc(-c3cccn3C)cc21
 : 0.1, 0.0%
- CCOC(=O)c1c(C)[nH]c(C)c1S(=O)(=O)N(C)CC(=O)Nc1ccc(CC)cc1
 : -0.1, 1.3%
- O=C(CNC(=O)c1ccccc1)OCC(=O)c1ccc2ccccc2c1
 : -0.7, 0.7%
- O=S(=O)(c1ccc(Cl)cc1)c1nnn2c1nc(N1CCCCC1)c1sccc12
 : 2.0, 0.0%
- CCc1cc(C(=O)/C=C/c2cc3c(cc2C)OCCO3)c(O)cc1O
 : -0.4, 1.3%
- COc1ccc(-c2nc(-c3cc4cc(Br)ccc4oc3=O)cs2)cc1
 : -0.7, 1.7%
- COc1ccc(NC(=O)CSc2nc3nc(C)c(Cc4ccc(C)cc4)c(C)n3n2)cc1OC
 : 0.7, -0.6%
- Cc1cccc(-c2nnc(SCCC(=O)O)o2)c1
 : 2.2, 0.0%
- COc1ccc(CCNC(=O)c2ccc(CSCc3ccc(C)cc3)o2)cc1OC
 : 2.7, -1.8%
- COc1ccc(S(=O)(=O)N(Cc2nc(-c3ccc(C)cc3)no2)C2CCCCC2)cc1
 : 1.0, 0.5%
- COc1cc2c(NC3CCN(C)CC3)nc(N3CCCCC3)nc2cc1OCCCN(C)C
 : -0.2, -1.2%
- Cc1cccc(-c2nnc(SCC(=O)Nc3ccc(C)c(C)c3)o2)c1
 : 2.4, 1.7%
- Cc1oc(-c2ccc(C(=O)NCCC(C)C)cc2)nc1CN1CCc2ccccc21
 : 3.4, 2.8%
- Cc1ccc(OCC(=O)Nc2cccc3ccc(C)nc23)c(C)c1
 : -1.0, 6.5%
- CC1CCN(c2oc(-c3cccs3)nc2S(=O)(=O)c2ccccc2)CC1
 : 1.0, 1.7%
- COC(=O)c1c(NC(=O)CCCOc2ccc(C)cc2)sc2c1CCCC2
 : -0.7, 1.1%
- Cc1ccc(CN(C(=O)COc2ccc(F)cc2)C2CCS(=O)(=O)C2)o1 (stereo not drawn)
 : -0.3, 0.9%
- CC(C)c1noc(-c2ccccc2OCC(=O)Nc2cccc([N+](=O)[O-])c2)n1
 : -1.2, 1.8%
- Cc1nn2c(=O)cc(COc3ccc(/C=C(\C#N)C(=O)Nc4ccccc4)cc3Cl)nc2s1
 : 0.0, 6.4%
- CCOC(=O)c1cccc(NC(=O)NCc2ccc3c(c2)CCN3C(=O)c2ccccc2)c1
 : 1.0, 0.6%
- CC(C)c1ccc(S(=O)(=O)c2nnn3c2nc(NC2CCCC2)c2sccc23)cc1
 : 0.7, 2.3%
- Cc1ccc(-c2nn3c(=O)cc(CN4CCN(C(=O)c5ccc(C(C)(C)C)cc5)CC4)nc3s2)cc1
 : -0.2, 0.3%
- Cc1cccc(OCC(=O)N(Cc2cccs2)c2ccc(Cl)cc2)c1C
 : -0.3, 8.0%
- COc1ccc(-c2csc3ncnc(Nc4ccc(OC)c(OC)c4)c23)cc1
 : -1.2, -2.1%
- Cc1ccc(Cl)cc1NC(=O)CN1C(=O)c2cccc3cccc1c23
 : 1.1, -0.7%

Remaining list, next part.
Values run as follows: TRPML1 ag, PINK1 expr mod
- O=C(Cn1cnc2c(nc3n2CCCCC3)c1=O)Nc1ccc(F)cc1
 : -0.5, 1.5%
- COc1ccc(-c2c(C)nn3c(C(F)(F)F)cc(-c4ccccc4)nc23)cc1
 : 0.9, 4.2%
- Cc1ccccc1CNC(=O)C(C)n1nc(C)n2c(cc3occc32)c1=O (stereo not drawn)
 : 1.4, 0.4%
- CC(C)NC(=O)C1CCC(Cn2c(=O)c3sccc3n(CC(=O)N3CCCC3)c2=O)CC1 (stereo not drawn)
 : -0.6, -0.1%
- COc1ccc(Cl)cc1NC(=O)CSC1=Nc2ccccc2C2=NC(CCC(=O)NCc3ccc(F)cc3)C(=O)N12 (stereo not drawn)
 : 0.2, 0.5%
- Cc1ccc(-n2nc3ccc(NC(=O)c4cc5ccccc5o4)cc3n2)cc1
 : -0.5, -1.7%
- NS(=O)(=O)c1ccc(NC(=O)C(=O)Nc2ccc3nc4n(c(=O)c3c2)CCCCC4)cc1
 : 1.6, 4.1%
- Cc1cc(-c2ccc(C)c(S(=O)(=O)N3CCCC(C)C3)c2)on1 (stereo not drawn)
 : 1.9, 0.3%
- COc1ccccc1CCNC(=O)C(=O)NCC(c1ccc2c(c1)OCO2)N1CCOCC1 (stereo not drawn)
 : 0.5, -0.6%
- COc1cccc(CNC(=O)c2nn(-c3ccc(C)cc3)c(=O)c3c2c2ccccc2n3C)c1
 : 0.5, 2.7%
- COc1cccc(C(=O)Nc2cccc(-c3nc4ncccn4c3C)c2)c1
 : -0.3, -0.5%
- CCCOc1ccc(-c2cccc(NS(=O)(=O)c3cccs3)c2)nn1
 : 0.5, 3.4%
- COc1cc2nc(NC3CCN(C)CC3)nc(N3CCCN(C)CC3)c2cc1OC
 : -0.4, -0.7%
- COc1ccc(-c2onc(C)c2C)cc1S(=O)(=O)N1CCc2ccccc21
 : 3.6, 1.0%
- O=S(=O)(NCCc1csc2nc(-c3ccc(F)cc3)nn12)c1ccc2c(c1)OCCO2
 : 3.2, -0.2%
- CCOC(=O)c1ccc(N2C(=O)c3n[nH]c(-c4ccco4)c3C2c2ccc(F)cc2)cc1 (stereo not drawn)
 : 1.0, -1.5%
- CC(C)(C)NC(=O)CSc1nc(-c2ccc(F)cc2)cc(C(F)(F)F)n1
 : -0.3, 0.3%
- COc1ccc(C(=O)NCCSc2c(C)[nH]c3ccccc23)cc1
 : 2.3, 24%
- CCCN(CCC)C(=O)Cn1c(=O)n(-c2ccc(CC)cc2)c(=O)c2c3c(sc21)CCC3
 : 2.9, 0.0%
- CCOc1ccccc1NC1(c2ccccc2)C(=O)c2ccccc2C1=O
 : 2.6, -4.5%
- CCN(CC)C(=O)c1ccc2c(c1)N(Cc1ccc(C(F)(F)F)cc1)C(=O)c1ccccc1S2
 : -0.6, -0.2%
- CCOC(=O)c1ccc(N2C(=O)c3[nH]nc(-c4ccccc4)c3C2c2ccc(CC)cc2)cc1 (stereo not drawn)
 : 1.1, 1.9%
- N#Cc1cc2c(=O)n3ccccc3nc2n(-c2nnc(SCc3ccccc3Cl)s2)c1=O
 : 3.8, 14%
- COc1ccc(CNC(=O)CCc2c(C)nn(-c3ccc(N4CCOCC4)nn3)c2C)cc1
 : -0.4, 0.0%
- CC1CCCCN1CCCNC(=O)c1ccc2c(c1)sc1nc(-c3ccc(F)cc3)cn12 (stereo not drawn)
 : -0.4, 1.1%
- Cc1nn(C(=O)c2ccccc2)c(C)c1Sc1ccc(Cl)cc1
 : 0.2, u
- CCCc1nccn1S(=O)(=O)c1cc(Br)ccc1OC
 : 2.1, 0.2%
- CC(C)C(=O)N1c2ncnn2C2(CCCCC2)[C@@H]2CCCC[C@@H]21
 : -0.2, -1.5%
- CCN(CC)CCNC(=O)Cn1ncc2c3ccccc3n(Cc3ccc(Cl)cc3)c2c1=O
 : -0.4, 0.4%
- CCC(C)NC(=O)c1nn(-c2ccc(C)cc2)c(=O)n(C)c1=O (stereo not drawn)
 : -0.8, -1.2%

Some of these compounds in order of the PINK1 expr mod value, descending.
compound	PINK1 expr mod
COc1ccc(-c2c(C)nn3c(C(F)(F)F)cc(-c4ccccc4)nc23)cc1	4.2%
CCCOc1ccc(-c2cccc(NS(=O)(=O)c3cccs3)c2)nn1	3.4%
CCCc1nccn1S(=O)(=O)c1cc(Br)ccc1OC	0.2%
CCN(CC)C(=O)c1ccc2c(c1)N(Cc1ccc(C(F)(F)F)cc1)C(=O)c1ccccc1S2	-0.2%

(continued)
Values run as follows: TRPML1 ag, PINK1 expr mod
- CCn1c2ccccc2c2cc(NC(=O)COc3ccc(C)c(C)c3)ccc21
 : -0.2, 0.9%
- CCc1nc(SC)ncc1C(=O)N1CCN(c2cc(Cl)ccc2C)CC1
 : 2.5, 6.3%
- CN(C)c1ccc(C(CNC(=O)COc2ccccc2)N2CCOCC2)cc1 (stereo not drawn)
 : 0.2, -1.8%
- CCN(c1ccccc1C)S(=O)(=O)c1ccc(N2CCCCS2(=O)=O)cc1
 : 0.5, -0.3%
- Cc1nc(SCC(=O)Nc2ccccc2F)[nH]c(=O)c1Cc1ccccc1
 : 0.7, 0.4%
- Cc1cc(NC(=O)c2ccco2)cc(-c2nc3cc(Cl)ccc3o2)c1O
 : -0.3, 11%
- O=[N+]([O-])c1ccccc1S(=O)(=O)N1CCN(c2nc(-c3cccs3)nc3ccccc23)CC1
 : -0.5, -0.7%
- O=C(Cc1csc2nc(-c3ccc(F)cc3)cn12)NCc1ccccc1
 : 0.0, 1.1%
- Cc1ccc(C(=O)Nc2cc3c(cc2N2CCCC2)n(C)c(=O)c(=O)n3C)cc1
 : 1.0, -0.5%
- Cc1cc2nn(-c3ccc(F)cc3)nc2cc1NC(=O)c1cccc([N+](=O)[O-])c1C
 : 4.5, 8.3%
- CCN(C(=O)Cn1c(SCC(=O)Nc2ccc(OC)cc2)nc2ccccc21)c1cccc(C)c1
 : 0.9, 0.1%
- CC1CCCN(C(=O)Cn2ncc3c([nH]c4ccccc43)c2=O)C1 (stereo not drawn)
 : 3.9, 3.4%
- COc1ccc(-c2cc(C(=O)OCC(=O)c3cccc(OC)c3)c3cccc(Cl)c3n2)cc1
 : -0.4, 1.4%
- CCOC(=O)Cn1c(=O)n(CC2CCCO2)c2nc(-c3ccc(OC)cc3OC)nc(C(N)=O)c21 (stereo not drawn)
 : 1.6, -0.6%
- COc1ccc(N(C)S(=O)(=O)c2ccc3c(c2)CCN3C(=O)CCC(=O)O)cc1
 : -0.8, 1.3%
- O=C(Nc1ccc(Oc2ccccc2)cc1)C1CCN(S(=O)(=O)c2ccccc2)CC1
 : 2.2, -0.2%
- O=C(NCc1cccc(F)c1)c1ccc2nc(N3CCCCC3)sc2c1
 : 1.6, 7.0%
- CC(=O)c1ccc(NC(=O)COc2ccccc2-c2nc(-c3ccccc3)no2)cc1
 : -0.2, 1.8%
- O=C(CSc1nc(-c2ccc(F)cc2)cc(C(F)(F)F)n1)NCc1ccccc1
 : 0.3, 6.0%
- COc1ccc(CCNC(=O)C(=O)Nc2ccc(C)c(C)c2)cc1OC
 : -1.3, 1.8%
- COc1ccc(NC(=O)c2c(N)c(C(=O)c3ccc(OC)cc3)n3ccccc23)cc1
 : 0.8, 0.6%
- Cc1nn(CC(=O)NCc2ccc(N(C)C)cc2)c(=O)c2nn(-c3ccccc3)c(C)c12
 : -1.0, 1.4%
- Cc1oc2c(c(C)cc3oc(=O)c(CC(=O)NCc4ccc(F)cc4)c(C)c32)c1C
 : -0.4, -0.1%
- COc1ccc(OC)c(NS(=O)(=O)c2ccc(-c3cc(C)no3)s2)c1
 : -0.2, 2.6%
- Cc1ccc(NC(=O)Cn2c(=O)nc(-c3ccccc3)c3ccccc32)cc1F
 : 1.4, 0.0%
- COc1ccc(S(=O)(=O)Nc2cc3c(cc2NCc2ccccc2)n(C)c(=O)n3C)cc1
 : 0.0, 3.8%
- Cn1c(=O)c2ccccc2n2c(CCC(=O)N3CCN(c4cccc(Cl)c4)CC3)nnc12
 : -0.5, 0.5%
- CC(Nc1ccc(-c2nc(-c3ccco3)no2)cc1[N+](=O)[O-])c1ccccc1 (stereo not drawn)
 : -0.5, -1.0%
- CCOC(=O)c1ccc(NC(=O)CSc2nccn2-c2ccc(OCC)cc2)cc1
 : 2.4, 5.8%
- O=C(Cn1c(=O)c2cccn2c2cccnc21)NCc1ccccc1F
 : 0.1, -1.0%

Full records, looked up by structure.
Record of CN(C)c1ccc(C(CNC(=O)COc2ccccc2)N2CCOCC2)cc1 (stereo not drawn) : TRPML1 ag = 0.2; PINK1 expr mod = -1.8%
Record of CCn1c2ccccc2c2cc(NC(=O)COc3ccc(C)c(C)c3)ccc21 : TRPML1 ag = -0.2; PINK1 expr mod = 0.9%
Record of COc1ccc(N(C)S(=O)(=O)c2ccc3c(c2)CCN3C(=O)CCC(=O)O)cc1 : TRPML1 ag = -0.8; PINK1 expr mod = 1.3%

Further structures.
Values run as follows: TRPML1 ag, PINK1 expr mod
- COc1ccccc1CNC(=O)c1ccc(CN2CC(=O)N3CCCCC3C2=O)cc1 (stereo not drawn)
 : 1.2, -1.1%
- NC(=O)C1CCN(S(=O)(=O)c2ccc(N3CCCCS3(=O)=O)cc2)CC1
 : 0.7, -0.4%
- Cc1ccc(NC(=O)CN2C(=O)COc3ccc(S(=O)(=O)N4CCOCC4)cc32)c(Cl)c1
 : 4.3, 2.4%
- CCOc1ccc2c(c1)sc1nc(=O)n(-c3ccc(Cl)c(Cl)c3)c(=O)n12
 : -1.1, -0.1%
- COC(=O)c1cc2c(cc1NC(=O)c1cnn(-c3ccc(C)cc3)c1-n1cccc1)OCO2
 : -0.1, 1.4%
- CCc1nc2ccc(C(=O)NCc3ccc(OC)c(OC)c3)cc2nc1CC
 : -0.4, 1.3%

Screening results: PubChem, National Center for Advancing Translational Sciences (NCATS)
